Source: PubChem (Center for Chemical Genomics, University of Michigan)
CDC25B-CDK2 inh: human CDC25B-CDK2/CyclinA binding inhibition | P30305+P24941 | HTRF CDC25B-CDK2/CyclinA binding, anti-His/anti-Flag; stronger effect = higher value | z-score (concentration not given with the values) | 94,000 compounds, 0.72% hits;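 note: score is relative to mean and SD of negative controls; strong numbers were not always called active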
HIV TAR-Tat: HIV-1 TAR-Tat binding disruption | z-score (no concentration beside the values) | AID 1259389 | HIV-1 TAR RNA, Tat peptide displacement FRET; stronger effect = higher value | 100,000 compounds, 0.6% hits;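 note: score is relative to mean and SD of negative controls; some compounds called inactive have numbers as strong as hits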
Starred values were filed as active, the others as inactive; / = no result given.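 Rule for the calls: active = z-score from 3 up in half or more of its runs; inactive = the rest.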

SMILES	CDC25B-CDK2 inh	HIV TAR-Tat
Cc1ccc(-c2cnnc(-n3nc(C)c4c3NC(=O)CC4c3ccc(OC(C)C)cc3)n2)cc1 (configuration not stated)	-1.1	1.1
CC1CCC2(CC1)OC1(O)CCC(C)CC1C1(O)CCC(C)CC21 (configuration not stated)	0.24	/
O=C(Nc1nccs1)c1cc2ccc3cccnc3c2[nH]1	/	0.62
C[C@@H]1[C@H]2[C@H](O[C@@H]3O[C@H](CO)[C@@H](O)[C@H](O)[C@H]3O)OC=C(C(=O)O)[C@H]2C[C@@H]1O	/	-0.19
CCCCNc1c(NC2CCN(C(=O)OCC)CC2)c(=O)c1=O	-1.2	-1.1
O=C(CCCc1nnc2n3nc(-c4ccccc4)nc3c3ccccc3n12)N1CCOCC1	-1.2	1.7
COc1ccc(-n2c(/C=C/N(C)C)c([N+](=O)[O-])c3ccc(O)c(CN(C)C)c32)cc1	-2.2	0.01
O=C(O)Cn1ncn2c(cc3sccc32)c1=O	-2.6	-0.17
COC(=O)c1c(C)oc2ccc(OC(=O)c3ccco3)cc12	-1.6	/
CC1CCC(NC(=O)c2cc(S(=O)(=O)N3CCCC3)cn2C)CC1 (configuration not stated)	/	1.7
Cc1c(C(=O)NCCCN2CCOCC2)cc(-c2ccccc2)n1-c1ccccc1	-0.48	/
COc1ccc(OC)c(S(=O)(=O)Nc2ccc3c(c2)n(C)c(=O)c(=O)n3C)c1	/	0.21
Cc1csc2nc(COc3ccc(Cl)cc3)cc(=O)n12	-2.3	1.8
O=C(NCCCO)c1c(O)c2cccc3c2n(c1=O)CCC3	/	1.5
O=S(=O)(c1ccc2c(c1)CCO2)N1CC=C(c2ccccc2)CC1	-1.3	/
CCc1nc(Oc2ccc(F)cc2)c2oc3ccccc3c2n1	/	1.2
COc1ccccc1CNc1c(-c2ccc3c(c2)OCC(=O)N3)c(=O)c1=O	/	0
CCCN1C(=O)C2(c3ccccc31)c1c(oc3ccccc3c1=O)C(=O)N2CCCOC (configuration not stated)	-0.16	0.95
O=C(c1ccc(F)cc1)c1cn(Cc2ccc(F)cc2)c2ccccc2c1=O	0.53	-0.63
COc1ccc(-c2c3c(=O)n(C)c(=O)n(C)c3c3n2C(C)(C)COC3c2ccc(OC)cc2)cc1 (configuration not stated)	-1.7	1.5
N#Cc1c2c(c(N3CCN(C4c5ccccc5-c5ccccc54)CC3)n3c1nc1ccccc13)CCC2	-3	/
CCC1(CC)Cc2ccccc2-c2[nH]c(=O)n(C(C)C)c(=O)c21	0.17	-0.19
CN1C(=O)c2cc(NC(=O)CCC3CCCC3)ccc2Oc2ccccc21	/	1.3
CC(C)CCNC(=O)C1(C)Cn2nc(C(=O)N3CCCCC3)cc2C(=O)N1C (configuration not stated)	/	1.5
CCCN1CCN(C(=O)c2cc3ccc4cccnc4c3[nH]2)CC1	/	1.2

(more compounds)
SMILES	CDC25B-CDK2 inh	HIV TAR-Tat
Cc1cccc(-c2noc(CN(C(C)C)S(=O)(=O)c3ccc(Br)cc3)n2)c1	-0.77	-0.9
Cn1c(=O)c(=O)n(C)c2cc(S(=O)(=O)N3CCCC3c3cccc(F)c3)ccc21 (configuration not stated)	-0.63	0.7
Cc1cc(C)n(C(C)C(=O)Nc2ccccc2Cl)c(=O)n1 (configuration not stated)	-0.11	1.6
CCN(CC)c1ccc(C2C3=C(CC(C)(C)CC3=O)Nc3cc4c(cc32)OCCO4)cc1 (configuration not stated)	-0.96	/
Cc1nc2ccc(S(=O)(=O)N(C)CC(=O)NCCC(C)C)cc2s1	0.68	0.73
CCOC(=O)c1cc(-c2ccc(S(=O)(=O)N3CCN(C4CCCCC4)CC3)s2)on1	/	-0.9
CCCC(C)N1CCN(C(=O)C2CCN(c3ccc(-c4cccs4)nn3)CC2)CC1 (configuration not stated)	/	-0.15
CN(C)S(=O)(=O)c1ccc(S(=O)(=O)N2CCC(C(=O)O)CC2)cc1	-2.1	0.24
CC12CCC(C/C1=N\O)C2(C)C (configuration not stated)	-1.2	/
CC(C)CCn1c(SCC(=O)NC2CCCC2)nc2ccsc2c1=O	-7.4	/
CCN(Cc1ccccc1)S(=O)(=O)c1cc(-c2onc(C)c2C)ccc1C	/	1.5
CCOC(=O)c1nc(N2CCN(C3CCCCC3)CC2)c2ccccc2n1	/	0.35
CCCn1c(C)ccc(-c2noc(CCCC(=O)NC3CCCCC3)n2)c1=O	-1.3	0.14
CCOc1ccc(CN2CCc3nc(N4CCN(C)CC4)ncc3C2)cc1	/	1.2
CCOc1ccc(C(=O)CC(SCc2ccc(Cl)cc2)C(=O)O)cc1 (configuration not stated)	-0.33	/
O=C(NCCc1c[nH]c2ccccc12)c1csc2c1CCCCC2	-1.8	1.1
CCCc1cc(C(=O)N2CCCC2c2cc(C)no2)no1 (configuration not stated)	/	2
O=C(CCS(=O)(=O)c1cc2c(cc1Cl)NC(=O)CO2)Nc1ccccc1F	/	1.9
CCn1cc(Cc2nnc(NC(=O)Cc3cccs3)s2)c2ccccc21	/	1.2
CCc1nnc(SCC(=O)Nc2cccc(SC)c2)c2cc3occc3n12	/	0.68
CCOC(=O)c1cc(NC(=O)CCC(=O)O)ccc1N1CCCCC1	-1.4	/
O=C(CSc1nc2c(cnn2-c2ccc(Cl)cc2)c(=O)[nH]1)Nc1ccc(F)cc1F	/	1.4
CCCN(CCC)Cc1nc2c(c(=O)[nH]1)C1(CCCC1)Cc1ccccc1-2	-0.88	-1.6
CN1CCN(CCCNC(=O)c2sc3ccccc3c2Cl)CC1	0.35	-0.58
Cc1ccc2c(c1)NC(CCC(=O)NC(C)c1ccc3c(c1)OCCO3)=NS2(=O)=O (configuration not stated)	/	0.88

Full records as entered above.
Cc1nc2ccc(S(=O)(=O)N(C)CC(=O)NCCC(C)C)cc2s1 in the list: CDC25B-CDK2 inh: 0.68; HIV TAR-Tat: 0.73
O=C(CCS(=O)(=O)c1cc2c(cc1Cl)NC(=O)CO2)Nc1ccccc1F in the list: CDC25B-CDK2 inh: /; HIV TAR-Tat: 1.9

More compounds follow:
SMILES	CDC25B-CDK2 inh	HIV TAR-Tat
Cn1c(SCC(=O)Nc2ccccc2)nnc1C1COc2ccccc2O1 (configuration not stated)	-1.7	/
CC(=O)Nc1scc(C)c1C(N)=O	-1.1	/
O=C(O)c1cccc2c1NC(c1cccc(Br)c1)C1C3CCC(C3)C21 (configuration not stated)	-1.2	/
COc1ccc(-c2noc(CN(C)S(=O)(=O)c3ccc(Cl)cc3)n2)cc1OC	-1.5	0.7
Cc1[nH]nc2c1C1(C(=O)N(C)c3ccccc31)C(C#N)=C(N)O2 (configuration not stated)	-1.2	/
O=C(NNS(=O)(=O)c1ccccc1)c1csc2ccc(Cl)cc12	-1.6	/
O=C(NCc1cccs1)C1CC(c2cccc(Br)c2)=NO1 (configuration not stated)	-1.9	0.82
O=C(c1cc2ccccc2c(=O)s1)N1CCc2ccccc2C1	0.55	1
CC1CCC(NS(=O)(=O)c2ccc3c(c2)CC(=O)N3)CC1 (configuration not stated)	0.63	-0.2
COc1ccc(OC)c(NS(=O)(=O)c2ccc3c(c2)NC(=O)CC(C)S3)c1 (configuration not stated)	/	0.41
CCOC(=O)C1=C(C)Nc2sc(C(=O)c3ccc(F)cc3)c(N)c2C1c1ccc(C(=O)OC)cc1 (configuration not stated)	1.5	-1.5
Cc1ccc(N(CC(O)Cn2c3ccccc3c3ccccc32)S(C)(=O)=O)c(C)c1 (configuration not stated)	-1.3	/
CC(C)(C)n1nc2c(c1NC(=O)c1ccco1)CS(=O)C2 (configuration not stated)	0.46	/
COC(=O)C1=C(C)NC2=C(C(=O)CC(c3ccccc3)C2)C1c1cc(Cl)c(O)c(OC)c1 (configuration not stated)	-0.33	0.38
COc1ccc(S(=O)(=O)c2cn(C)c3cc(N4CC(C)CC(C)C4)c(F)cc3c2=O)cc1 (configuration not stated)	/	0.7
N#Cc1nc(/C=C/c2cccs2)oc1N1CCCC1	-2.4	1.9
O=C(c1c(F)cccc1F)N1CCCCC1Cn1cccc1 (configuration not stated)	0.02	/
Cc1cc2n(n1)CCC(=O)N2CC(=O)NCCCN1CCC(N2CCCCC2)CC1	/	1.3
Cc1c(-c2nnnn2-c2ccc(F)cc2)cnc2cc3c(cc12)OCO3	-0.06	/
COCc1c(Br)c(C)nc(OCC2=NN(C(C)=O)C(c3ccccc3)O2)c1C#N (configuration not stated)	/	2.3
CC(=O)Nc1c(C(=O)c2cccs2)oc2ccccc12	-0.25	-1
CN1CCN(C(=O)C2=CC(c3ccc(F)cc3)=NS(=O)(=O)N2C)CC1	-2.2	1.6
CC1CC(C)CN(C(=O)c2cc3c(s2)-c2ccccc2OC3)C1 (configuration not stated)	-0.29	0.31
Fc1ccc(-c2nc3ncccc3o2)cc1	3.2	-0.06
O=C(CCC(=O)n1ncc2ccccc21)NCc1ccco1	-1.5	3.8

Carrying on.
SMILES	CDC25B-CDK2 inh	HIV TAR-Tat
CCC(O)c1nc2ccccc2n1Cc1ccccc1F (configuration not stated)	0.64	0.38
Cc1cc(C)c(-c2c(Nc3cccc(F)c3)c(=O)c2=O)cc1C	/	-0.42
O=C(N[C@@H](CO)[C@H](O)c1ccc([N+](=O)[O-])cc1)C(Cl)Cl	/	2.4
COCc1cc(C)nc2sc3c(=O)n(-c4cccc(OC)c4)nnc3c12	-1.1	1
COc1ccc(NS(=O)(=O)c2ccc(N3CCCCS3(=O)=O)cc2)cc1Cl	/	1.8
Cc1cc(-c2ccc(C)c(S(=O)(=O)NC3CCCc4ccccc43)c2)on1 (configuration not stated)	/	0.33
O=C(C(c1ccccc1)c1ccccc1)N1CCN(C2CC3CCC2C3)CC1 (configuration not stated)	-0.59	1.5
CCCC(O)(c1ccc(F)cc1)C(CN1CCOCC1)c1ccc(Cl)cc1 (configuration not stated)	0.11	1.3
O=C(NNC(=O)c1cncc(C#Cc2ccccc2)c1)c1ccccc1	-0.06	/
COc1ccccc1N=NC(=S)NNc1ccccc1OC	-0.99	/
CCOC(=O)c1csc(C2COc3ccccc3O2)n1 (configuration not stated)	-0.56	/
Cc1nn(-c2nc3ccc(Br)cc3s2)c2c1C(c1ccc(F)cc1)CC(=O)N2 (configuration not stated)	/	0.98
CSc1ccc(-c2nc3cnccn3c2NC2CCCC2)cc1	-0.98	-0.62
Cc1ccc(C2=NS(=O)(=O)N(C)C(C(=O)NC(C)(C)CO)=C2)cc1	-1	1.9
CCc1ccc2[nH]c(C)c(CN3CCCC3)c(=O)c2c1	0.62	-0.57
COc1ccc(-c2cc(C(=O)N3CCCC3)c3ccccc3n2)cc1OC	-1.9	/
CCc1cc2c(NCc3ccco3)ncnc2s1	/	2
O=C(C1CCN(c2ncnc3c2nc2n3CCCCC2)CC1)N1CCN(c2ccccc2F)CC1	/	0.76
O=C1C2C(c3ccc(F)cc3F)OC3(C(=O)c4ccccc4C3=O)C2C(=O)N1c1ccc(Cl)cc1 (configuration not stated)	-0.72	0.66
N/C(=N\S(=O)(=O)c1ccc(Cl)cc1)N1CCOCC1	0.21	/
O=C(NCCCN1CCOCC1)C1CCN(c2nc3ccccc3n3cccc23)CC1	/	-1.6
Cc1cc(N)n(C2CCOC(C)(C)C2)n1 (configuration not stated)	-1.3	0.31
CCC(C)NC(=O)c1cc2n(n1)CC(C)(C(=O)NCCC(C)C)N(C)C2=O (configuration not stated)	/	0.85
Brc1c(CSc2nnc(-c3ccccc3)o2)nc2sccn12	/	1.2
COc1cc(NC(=O)Cn2nc(C(F)(F)F)c3c2CCCC3)c(OC)cc1Cl	0.09	0.38

(listing goes on)
SMILES	CDC25B-CDK2 inh	HIV TAR-Tat
Cc1cc2nc(C(F)(F)F)c(=O)[nH]c2cc1C	-0.6	1.1
Cc1csc2sc(C(=O)N=S(C)(=O)c3ccc(Cl)cc3)c(C)c12 (configuration not stated)	1.8	/
Cc1nc2c3cc(F)ccc3n(C)c2s1	-1.9	/
COc1cc(C2Nc3ccc(C(=O)c4ccccc4)cc3NC3=C2C(=O)CCC3)ccc1OC(C)=O (configuration not stated)	-0.2	2.9
O=C1CCCC2=C1C(c1ccccc1F)n1nc(SCc3ccc(C(=O)O)cc3)nc1N2 (configuration not stated)	1.7	0.21
O=C(NCCCN1CCCC1=O)c1nc(CS(=O)(=O)c2ccc(Cl)cc2)no1	/	0.97
O=C(Nc1cccc(-c2cn3cccnc3n2)c1)c1ccc(Br)cc1	0.1	/
C=CCSc1nnc(NC(=O)c2cc(=O)c3c(C)cc(C)cc3o2)s1	0.09	2
CNC(=O)C1Cc2cc(S(=O)(=O)N3CCCCC3)ccc2N1C(C)=O (configuration not stated)	/	0.85
C=CCc1ccc(OC(=O)NC2CCCCC2)c(OC)c1	-0.67	0.56
CCOC(=O)C(NC(C)=O)(N1CCCCC1)C(F)(F)F (configuration not stated)	0.49	/
CSc1ncc2c(=O)n(CC(=O)Nc3ccc(F)cc3F)cnc2n1	/	-0.03

Structures from the list above containing two or more sulfur atoms:
SMILES	CDC25B-CDK2 inh	HIV TAR-Tat
Cc1nc2ccc(S(=O)(=O)N(C)CC(=O)NCCC(C)C)cc2s1	0.68	0.73
CCOC(=O)c1cc(-c2ccc(S(=O)(=O)N3CCN(C4CCCCC4)CC3)s2)on1	/	-0.9
CN(C)S(=O)(=O)c1ccc(S(=O)(=O)N2CCC(C(=O)O)CC2)cc1	-2.1	0.24
CC(C)CCn1c(SCC(=O)NC2CCCC2)nc2ccsc2c1=O	-7.4	/
CCn1cc(Cc2nnc(NC(=O)Cc3cccs3)s2)c2ccccc21	/	1.2
CCc1nnc(SCC(=O)Nc2cccc(SC)c2)c2cc3occc3n12	/	0.68
O=C(NNS(=O)(=O)c1ccccc1)c1csc2ccc(Cl)cc12	-1.6	/
COc1ccc(OC)c(NS(=O)(=O)c2ccc3c(c2)NC(=O)CC(C)S3)c1 (configuration not stated)	/	0.41
COc1ccc(NS(=O)(=O)c2ccc(N3CCCCS3(=O)=O)cc2)cc1Cl	/	1.8
Brc1c(CSc2nnc(-c3ccccc3)o2)nc2sccn12	/	1.2
Cc1csc2sc(C(=O)N=S(C)(=O)c3ccc(Cl)cc3)c(C)c12 (configuration not stated)	1.8	/
C=CCSc1nnc(NC(=O)c2cc(=O)c3c(C)cc(C)cc3o2)s1	0.09	2
